# High-throughput results: PubChem, several laboratories
# RecA intein inh = Mtb RecA intein splicing inhibitors, primary screen, biochemical, fluorescence, HTS. Protein RecA (Mycobacterium tuberculosis (strain ATCC 25618 / H37Rv)), P9WHJ3. AID 2221, 2009. inhibition, %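 (about 9 µM by stock and volumes)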. actives 0.75% (n = 290,000). cell-free RecA intein splicing; in the data active means inhibition above about 30%; inconclusive means no clear call, values can overlap the other calls;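 further: 0% = vehicle wells and 100% = reference inhibitor control wells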
# Target sequence (P9WHJ3 whole entry, looked up): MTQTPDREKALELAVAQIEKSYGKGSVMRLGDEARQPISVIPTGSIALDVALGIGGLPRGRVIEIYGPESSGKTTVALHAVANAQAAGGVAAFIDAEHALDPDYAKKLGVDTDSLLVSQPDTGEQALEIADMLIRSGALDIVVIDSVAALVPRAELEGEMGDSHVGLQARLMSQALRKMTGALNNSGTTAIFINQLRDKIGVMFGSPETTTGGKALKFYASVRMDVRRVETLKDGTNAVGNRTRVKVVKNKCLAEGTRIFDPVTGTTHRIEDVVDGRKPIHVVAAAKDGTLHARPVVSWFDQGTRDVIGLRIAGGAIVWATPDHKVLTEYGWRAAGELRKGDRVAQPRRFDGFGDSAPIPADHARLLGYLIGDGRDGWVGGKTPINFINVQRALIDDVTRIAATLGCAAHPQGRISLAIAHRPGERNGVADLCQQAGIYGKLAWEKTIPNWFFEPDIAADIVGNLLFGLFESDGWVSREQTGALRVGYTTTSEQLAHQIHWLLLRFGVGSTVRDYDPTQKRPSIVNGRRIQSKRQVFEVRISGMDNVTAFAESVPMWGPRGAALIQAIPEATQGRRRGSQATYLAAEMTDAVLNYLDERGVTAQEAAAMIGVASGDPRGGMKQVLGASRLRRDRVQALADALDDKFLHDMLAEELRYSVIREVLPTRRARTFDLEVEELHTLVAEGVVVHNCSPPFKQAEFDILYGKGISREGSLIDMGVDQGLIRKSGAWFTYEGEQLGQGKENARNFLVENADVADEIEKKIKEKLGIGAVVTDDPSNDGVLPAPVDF
# Mtb betalactam = beta-lactam sensitization of Mtb H37Rv, H37Rv; M. tuberculosis H37Rv growth with meropenem, percent inhibition; hits of this screen are not shown here; inhibition, % at 25 µM; actives 0.27% (n = 330,000); AID 434955, 2010;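 active means about 74% or more and at least 40 points above the plate without the antibiotic, then above 30% in a dose series; inconclusive means first-round hits that could not be retested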;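 further: growth measured after seven days incubation then overnight dye step; 0% = bacteria only wells and 100% = bacteria with antibiotic; twin plates without the antibiotic show which effects depend on it; some results filed as inactive read as strong as hits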
# Arbovirus inh = antivirals against arbovirus infection, primary screen, cell-based, full library, 10K replicate subset | actives 0.37% (n = 200,000) | arbovirus infection cell-based antiviral screen | inhibition, % at 10 µM | AID 1251, 2008;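 active means inhibition from about 30%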;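 further: bluetongue infection of BSR cells; cell survival read as ATP light after 72 h; 0% = infected wells without compound and 100% = uninfected wells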
# Mtb H37Rv = M. tuberculosis H37Rv growth inhibitors, H37Rv strain (AID 1626); M. tuberculosis H37Rv growth inhibition; higher % means a stronger effect; actives 0.95% (n = 220,000); inhibition, % at 10 µM, or IC50 in µM where a hit was titrated;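 active means confirmed in a dose series; inconclusive means inhibition above 80% but not taken into the dose series; inactive means below 80% or under 30% at every dose of the series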;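 further: bacteria incubated seven days before Alamar blue readout; 0% = bacteria only wells and 100% = bacteria with antibiotic wells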
# YopH PTP inh = YopH tyrosine phosphatase inhibitors, primary screen, biochemical, fluorescence Ex485/Em525. inhibition, %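 (about 10 µM by stock and volumes)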. actives 0.16% (n = 140,000). AID 898, 2007;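 active means inhibition of 50% or more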;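 further: controls were vehicle for no effect and minimum signal wells for full effect; inactives centre near -20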
# Arbovirus inh repeat = recorded beside Arbovirus inh, whose call it bears; inhibition, %; measured here: 10K subset replicate screen; many hits read low in the repeat;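 first of two repeat runs on a subset; 0% = infected and 100% = uninfected wells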
# * = called active by the depositor; ? = inconclusive; . = not tested or not shown. This is a subset; the hit share may differ from the screen's.
SMILES,RecA intein inh,Mtb betalactam,Arbovirus inh,Mtb H37Rv,YopH PTP inh,others
Cc1cccc2c1Sc1ccccc1CC2=O,3.1,97,-3,7%,-24,
O=C(COC(=O)c1nc(Cl)c(Cl)c(Cl)c1Cl)c1ccc[nH]1,10,12,.,.,.,
CC1=C(C)CC(C(=O)NCCCN2CCCC2=O)C(C(=O)O)C1 (stereo not drawn),-2.4,-14,.,.,.,
Cn1c(CN2CCCC2)nc2cc(NS(=O)(=O)c3ccccc3)ccc21,3.1,-7,-2,12%,-31,
CCN1CCN(C(=S)NCc2ccc(C)cc2)CC1,-4.5,-3,-3,-4%,-8,
O=C(O)CCc1nn2c3ccccc3n(CCO)c2nc1=O,-1.5,-2,16,2%,.,
O=C(COc1ccc([N+](=O)[O-])cc1)Nc1ccc(S(=O)(=O)N2CCOCC2)cc1,0.3,4,.,.,.,
COc1ccc(CCNC(=O)CSc2ccc(Br)cc2)cc1OC,-2.5,-5,9,2%,.,
CN(C)CCCC(=O)c1ccc2c(c1)OCO2,-0.6,-5,2,-6%,-1,
Cc1ccc(C(=O)NCCc2nnc3c(C(F)(F)F)cc(Cl)cn23)o1,-2.4,0,.,.,.,
CCc1ccc(C(=O)COC(=O)CNC(=O)c2cccs2)cc1,2.7,-2,2,1%,-32,
O=C(c1ccc2ncsc2c1)N1CCCCC1,1.7,-9,.,.,.,

# The closing five records of the section above lead into the next.
SMILES,RecA intein inh,Mtb betalactam,Arbovirus inh,Mtb H37Rv,YopH PTP inh,others
COc1ccc(CCNC(=O)CSc2ccc(Br)cc2)cc1OC,-2.5,-5,9,2%,.,
CN(C)CCCC(=O)c1ccc2c(c1)OCO2,-0.6,-5,2,-6%,-1,
Cc1ccc(C(=O)NCCc2nnc3c(C(F)(F)F)cc(Cl)cn23)o1,-2.4,0,.,.,.,
CCc1ccc(C(=O)COC(=O)CNC(=O)c2cccs2)cc1,2.7,-2,2,1%,-32,
O=C(c1ccc2ncsc2c1)N1CCCCC1,1.7,-9,.,.,.,
COc1ccc(NC(=O)CC2C(=O)NCCN2C(=O)c2ccc(Cl)cc2)cc1 (stereo not drawn),-0.6,0,.,-15%,.,
Cc1ccc(SCCC(=O)Nc2ccccc2C(=O)N2CCOCC2)cc1,-0.1,-4,1,7%,-19,
O=C(NCc1cccs1)c1cccc(N2CCCC2=O)c1,-2.0,-10,-1,-4%,7,
O=C(NCCN1CCOCC1)c1ccc2ccccc2n1,-2.4,-18,18,-3%,-8,
CNC(=O)C1CC(=O)N(Cc2ccc3c(c2)OCO3)C(=Nc2ccc(OC)cc2)S1 (stereo not drawn),-3.1,0,-5,4%,-34,
c1ccc(N2CCN(Cc3ccnc4ccccc34)CC2)cc1,4.2,-11,3,-9%,4,
O=C(NCC1CCCN(Cc2ccc3nonc3c2)C1)c1ccc(F)cc1 (stereo not drawn),-0.9,-7,1,-2%,.,
CC1CCCN(C(=O)Cn2nnc(-c3ccccc3F)n2)C1 (stereo not drawn),0.6,-1,.,.,.,
O=C(CC(=O)Nc1ccc(Cl)c(Cl)c1)N/N=C/c1ccc(O)cc1,4.9,51,4,67%,-41,
CCc1ccc(NC2=CC(=O)CC(C)(C)C2)cc1,1.0,3,.,.,.,
Cc1ccc(O)c(CNc2ccc(S(=O)(=O)Nc3nccs3)cc2)c1,6.9,5,.,.,.,
O=S(=O)(Nc1cccc2ncccc12)c1cccs1,10,98,-22,?,-32,
Cc1[nH]n(-c2ccccc2)c(=O)c1C(C[N+](=O)[O-])c1ccccc1Cl (stereo not drawn),75*,98,3,4%,-22,
Cc1ncc(CN2CCC(CO)(CCOc3ccccc3)CC2)s1,-6.1,3,.,8%,.,
COc1ccc(CCn2c(C)nc3ccccc3c2=O)cc1OC,-3.6,-2,7,-2%,.,
c1ccc(Cn2cc(CSc3ccccc3)nn2)cc1,0.3,-2,.,7%,.,
OCC[C@@H]1C[C@@H](O)[C@H](O)[C@]2(CCCCO2)O1,-4.4,-6,-1,-7%,-21,
CCc1ccc(/C=C/C(=O)c2cc(Br)ccc(=O)c2O)cc1,2.8,99,-37,?,-21,
Cc1ccc(N(CC(=O)NCC2CCCO2)C(=O)Cn2nnc(-c3cccs3)n2)cc1 (stereo not drawn),4.4,5,6,-7%,.,
CCOC(=O)Cc1cc(=O)n2[nH]c(-c3ccc(Cl)cc3)cc2n1,1.2,1,-5,-3%,-16,
COc1cc(C(C)=O)ccc1OCC(=O)Nc1ccccc1N1CCCC1,3.5,1,.,.,.,
CC1C(=O)N2CCCc3cc(S(=O)(=O)N4CCCCC4)cc1c32 (stereo not drawn),-0.1,0,.,.,.,
O=C(c1n[nH]c(=O)c2ccccc12)N1CCN(c2ccccc2Cl)CC1,1.4,3,-3,-5%,-48,
COC(=O)c1ccccc1CC1SC(N)=NC1=O (stereo not drawn),0.3,0,.,.,.,
CC(C)CC(=O)NC(=S)Nc1ccc(Cl)cn1,1.4,8,-1,2%,-22,
O=C(NCC1CCCO1)C1CCN(CC2CCCCC2)CC1 (stereo not drawn),-3.7,-7,-1,-4%,-21,
Cc1ccc(-c2nnc(SCC(=O)NC3CC3)o2)cc1,-0.6,30,.,.,.,
Cc1ccc(NC(=O)c2cc(C)n(-c3cccc(C)c3)c2C)cc1,11,15,-3,16%,-29,
COc1cccc(CNC(=O)Cc2ccc(OC)c(S(=O)(=O)N3CCOCC3)c2)c1,6.0,-7,.,.,.,
O=C(Cn1cnc2ccccc2c1=O)Nc1ccccc1N1CCOCC1,-4.3,4,3,2%,.,
CN1C(=O)/C(=C/c2coc3ccc(O)cc3c2=O)SC1=S,-2.3,-1,.,-1%,.,
Cc1cc(C)cc(N(CC(=O)NCC2CCCO2)C(=O)CCC(=O)Nc2cc(C)on2)c1 (stereo not drawn),-1.5,-8,-1,.,-52,
CC(C)C(C)NC(=O)CN1C(=O)NC(c2ccccc2)(c2ccccc2)C1=O (stereo not drawn),0.3,-3,.,.,.,
COc1ccc(/C=N/n2nnnc2N)cc1OC,-1.1,-17,.,4%,.,
Cc1ccc(OCc2cccc(S(=O)(=O)N(C)C)c2)c([N+](=O)[O-])n1,1.2,-4,.,.,.,
Cc1nc(Nc2ccc(S(N)(=O)=O)cc2)sc1-c1ccccc1,2.7,22,.,.,.,
CN(CC(=O)Nc1ccccc1N1CCOCC1)S(=O)(=O)c1ccc(F)cc1,2.6,-8,3,0%,-4,
CCc1nnc(NC(=O)c2ccc(COc3cccc(C)c3)o2)s1,-1.8,-3,.,.,.,
COc1cccc(C(=O)Nc2ccc3c(c2)C(=O)NC3=O)c1,-3.1,0,.,.,.,
O=C(NC1CCCC1)c1cccc(NC(=O)c2ccco2)c1,3.6,-3,-8,-7%,-14,
CC(C)CNC(=O)c1cccc(NC(=O)c2ccco2)c1,0.0,5,-3,0%,-39,
O=C1CNC(=S)N1Cc1cccc(Cl)c1,-0.6,1,.,.,.,
N#CCC(=O)N/N=C/c1ccc(OCC(=O)Nc2ccc(F)cc2)cc1,4.1,3,1,1%,.,
COc1ccc(C(N)=O)cc1NC(=O)c1cccc(F)c1,-0.1,-10,-5,-5%,-37,
CN(C)c1ccc(CCN2CCOCC2)cc1,-3.8,-3,.,.,.,
CSc1cccc(NS(=O)(=O)c2cccc3nsnc23)c1,4.4,-5,4,-4%,-24,Arbovirus inh repeat=7
CC(OC(=O)c1cccs1)C(=O)Nc1nc(-c2ccccc2)cs1 (stereo not drawn),7.9,-4,5,9%,14,
O=C(Cc1ccccc1)Nc1ccc(F)cc1,4.2,-3,0,-3%,.,
COC(=O)c1c(C)oc2ccc(NS(=O)(=O)c3cccs3)cc12,-1.7,6,-8,2%,32,
COc1cccc(CNC(=O)CC2C(=O)NCCN2Cc2ccoc2)c1OC (stereo not drawn),2.6,1,0,-4%,.,
COC(=O)c1nccnc1C(=O)Nc1ccccc1N1CCOCC1,-0.5,3,.,.,.,
O=C(Nc1ccc(-c2n[nH]c(=S)o2)cc1)c1ccccc1Br,0.0,-19,.,.,.,
O=C(Nc1cccc(-n2cnnn2)c1)c1cc(Cl)ccc1Cl,2.1,1,.,.,.,
COc1ccc(-c2csc3ncnc(N4CCN(c5ccc(OC)cc5)CC4)c23)cc1,19,?,.,.,.,
O=C(Cc1cccs1)N/N=C/c1ccccn1,2.4,-3,.,-4%,.,
[O-][n+]1onc2c1CCC1N(O)C(c3ccccc3)CC21O (stereo not drawn),-4.4,-15,2,-10%,-32,
CC(=O)c1ccc(NC(=O)CCC(=O)OCC(=O)c2cccc([N+](=O)[O-])c2)cc1,0.0,3,.,.,.,
CC(C)c1[nH]nc2c1C(C(C)C)C(C#N)=C(N)O2 (stereo not drawn),5.6,0,-3,2%,-35,
CCN(C(=O)CSc1nnc(COc2cccc(C)c2)o1)c1nc(C)cs1,2.1,4,.,.,.,
CCOCCn1c(CN2CCCC(C)C2)nc2c1c(=O)n(C)c(=O)n2C (stereo not drawn),0.7,-3,.,2%,.,
# More results follow:
SMILES,RecA intein inh,Mtb betalactam,Arbovirus inh,Mtb H37Rv,YopH PTP inh,others
CC(C)(C)c1ccc(C(=O)NCCOc2ccccc2F)cc1,6.3,2,.,.,.,
CC(CCc1ccccc1)NC(=O)CCN1N=C(c2ccccc2)CCC1=O (stereo not drawn),2.2,-6,0,-12%,.,
O=C(Nc1cn(-c2ccccc2)nc1-c1ccc(F)cc1)c1ccccc1,0.6,-3,-8,-1%,-20,
COc1cccc(-n2c(C)cc(/C=C3\C(=N)N4N=C(CC(=O)N5CCOCC5)SC4=NC3=O)c2C)c1,-9.6,18,.,.,.,
COc1ccc(CCNC(=O)CSc2nnc3ccc(-c4ccccn4)nn23)cc1,-2.2,0,.,.,.,
CCc1cc2c(=O)n(CCC(C)C)c(=S)[nH]c2s1,0.9,76,1,51%,.,
COc1ccc(OC)c(CN2CCCC(C(=O)c3ccccc3SC)C2)c1 (stereo not drawn),1.2,-4,8,5%,.,
O=C(O)c1cc(S(=O)(=O)N(Cc2ccccc2)c2cccc(C(F)(F)F)c2)ccc1Cl,3.2,-8,.,.,.,
COCCOC(=O)C(CC(=O)O)NCc1ccco1 (stereo not drawn),-0.8,-1,.,12%,.,
CC1CCCCN1C(=O)CCC(=O)Nc1nnc(C(F)(F)F)s1 (stereo not drawn),-0.4,-1,.,.,.,
CCOc1ccc(-c2cc(C)[n+](CCN3CCOCC3)c(-c3ccc(OCC)cc3)c2)cc1,-0.2,56,.,2%,.,
CCSC1=C(C#N)C(c2cccs2)C(C(=O)OC)=C(C)N1 (stereo not drawn),3.2,4,6,-5%,-43,
CCC(Sc1nc2n[nH]c(C)c2c(=N)n1-c1cccc(Cl)c1)C(=O)NCCOC (stereo not drawn),1.6,-9,-17,11%,-1,
Cn1[nH]c(C(F)(F)F)c(C=NCc2ccc(Cl)cc2)c1=O,-1.2,-2,7,5%,.,
COC(=O)C(Sc1nc(C)cc(C)c1C#N)c1ccccc1 (stereo not drawn),6.0,8,-2,-1%,-40,
CC(=O)NCCOc1nc(N2CCCCC2)nc(N2CCCCC2)n1,1.3,-6,-10,-2%,.,
Cn1nc(C2CC2)cc1NC(=O)CC(CC(=O)O)c1ccccc1 (stereo not drawn),-6.4,0,.,-5%,.,
CN(CC(=O)OCC(=O)NCc1ccccc1)S(=O)(=O)c1ccc(Cl)cc1,0.4,-4,-1,7%,-18,
Cc1cc(C)nc(NC(=S)Nc2ccccc2)n1,-1.0,-8,0,-12%,.,
CC(C)Oc1ccc(S(=O)(=O)N2CCCCC2)cc1NC(=O)C1=COCCO1,4.5,-3,.,.,.,
S=C(Nc1cccnc1)NC1CCCCCCC1,2.8,-2,2,0%,-22,
Cc1ccc(C(=O)C[n+]2cc(Br)cc(Br)c2)cc1,4.7,-1,.,-11%,.,
Cc1ccc(NC(=O)Nc2ccc3c(c2)nc(C)n3C)cc1C,-3.0,-2,4,2%,.,
O=C(Nc1ccc(S(=O)(=O)N2CCCC2)cc1)c1ccc(CN2CCOCC2)cc1,-0.2,0,8,.,-51,
COC(=O)COc1ccc(S(=O)(=O)NCCC2=CCCCC2)cc1,1.4,71,14,25%,-27,
Cc1c(Cc2ccccc2)sc(NC(=O)/C=C/c2cccc3ccccc23)c1C(N)=O,-5.4,-6,-9,-2%,-29,
Cn1c(=O)c2c(SCCN3CCOCC3)nc(C3CCCC3)nc2n(C)c1=O,1.0,-4,-2,3%,.,
Cc1ccc(N(CC(=O)NC(C)C)C(=O)CCC(=O)Nc2nccs2)c(C)c1,0.2,-2,.,.,.,
